StopGo RLuc – lowers the Renilla signal of an FMDV 2A StopGo reporter. HEK cells with a luciferase reporter of 2A StopGo recoding. Potency, µM (doses to about 57.5 µM), inactives show at the top dose signal change, negative = less light. 120,000 compounds, 0.32% hits. AID 1745857; active means well fitted falling curve with a large enough effect; inconclusive means small, poorly fitted or top-dose-only effect; inactive means no such curve, though single readings can be large or run the other way; note: nearly all actives have a fitted effect of over 55% in size; overnight with compound
StopGo FLuc – FMDV 2A StopGo reporter, firefly signal; HEK cells with a luciferase reporter of 2A StopGo recoding; Potency, µM (highest dose often 57.5 µM), for inactives: at the top dose signal change, negative = less light; 120,000 compounds, 0.23% hits; AID 1745856; active = well fitted falling curve with a large enough effect; inconclusive = small, poorly fitted or top-dose-only effect; inactive = no such curve, though single readings can be large or run the other way; note: nearly all actives have a fitted effect of over 60% in size; overnight with compound
An asterisk follows results filed as active; ? = inconclusive; [ ] = remark or other dose. % is set by controls: 0 for no effect and ±100 for the full control effect; potency is the fitted concentration of half-maximal effect.

Values run as follows: StopGo RLuc | StopGo FLuc
- Cc1c(C)n2c3c(=O)[nH]c(=O)n(C)c3nc2n1CCNc1ccccc1Cl
    -1.4% | -2.2%
- O=C(NC1CCCCCC1)c1nc(Cc2c[nH]c3ccccc23)no1
    1.2% | 3.1%
- COc1cc(CNC2CN3CCC2CC3)cc(Cl)c1OCc1ccccc1 (stereo not given)
    -1.1% | 6.0%
- Fc1cccc(/C=N/Nc2cc(C(F)(F)F)ccc2Cl)c1
    -5.0% | -3.0%
- CCCSc1ncc(Cl)c(C(=O)Nc2ccc(S(=O)(=O)Nc3ncccn3)cc2)n1
    -4.4% | 20.3%
- COc1ccccc1NC(=O)c1ncoc1-c1cccc(Cl)c1
    -6.7% | -0.7%
- Cn1c(COc2ccc(C(C)(C)C)cc2)n[nH]c1=S
    0.0% | 164.5%[activator]
- COc1ccc2nc(NC(=O)c3nc(S(=O)(=O)Cc4cccc(C)c4)ncc3Cl)sc2c1
    -14.1% | 31.2%[activator]
- O=C(NCCCNC(=O)C1CC1)C1CC1
    2.9% | -6.0%
- CCOC(=O)C(C)NC(=O)C1CCN(c2ncnc3c2nc2n3CCCCC2)CC1 (stereo not given)
    9.7% | 6.3%
- COc1ccccc1CNC(=O)c1ccc(Cn2c(SCc3ccccc3)nc3cccnc32)cc1
    30.1%[activator] | 118.8%[activator]
- CCOC(=O)c1c(C)[nH]c(CCC(=O)NCc2cc(OC)c(OC)c(OC)c2)c1C
    -3.5% | -13.5%
- COc1ccc(OC)c(NC(=O)COc2ccc(C(C)C)cc2-n2cnnc2)c1
    -5.0% | -1.4%
- COc1ccc(Cc2nc3c4cnn(-c5cccc(F)c5)c4ncn3n2)cc1
    -0.1% | 23.7%
- Cc1nc2cc(-c3ccccc3)ccc2s1
    13.6% | 245.9%[activator]
- CCOC(=O)c1nnn(C(CC)C(=O)Nc2cc(OC)ccc2OC)c1C(=O)OCC (stereo not given)
    -12.4% | -6.5%
- C=CC[C@H]1Cc2c(Br)cc(Br)c(Br)c2[C@H](CC=C)N1
    1.9% | 4.8%
- OC(CNCc1ccco1)c1ccccc1 (stereo not given)
    -6.9% | -4.2%
- O=C(CCc1ccccc1)NCc1ccc2c(c1)CCN2C(=O)c1ccccc1
    -10.2% | -21.2%
- Cc1nc2ccc(Cl)cc2cc1C(=O)N(C)CC1COc2ccccc2O1 (stereo not given)
    -5.8% | -8.3%
- N#CC1=C(N)Oc2c(c(=O)[nH]c3ccccc23)C1c1cccc(Cl)c1 (stereo not given)
    15.6% | 27.9%
- CC(NC(=S)NCc1ccc(F)cc1)c1ccncc1 (stereo not given)
    -15.5%[1.06 µM] | 0.4%
- COCCn1nc(C(=O)NCC(c2ccccc2OC)N2CCCC2)ccc1=O (stereo not given)
    -10.3% | -10.4%
- CSc1ccccc1NC(=O)C(C)Cl (stereo not given)
    -8.9% | -9.5%
- CCc1nn(CC(=O)NCCCN2CCN(CC)CC2)c(=O)c2cc3occc3n12
    -3.1% | -11.4%
- COc1cc(OC)c(NC(=O)N2CCN3CCCCC3C2)cc1Cl (stereo not given)
    -9.5% | -22.9%
- Cc1ccc(OC(=O)c2cc(-c3ccc(Cl)cc3)on2)c(C)c1
    -5.7% | -5.6%
- Cc1ccc(CN2CCCn3nc(C(=O)NCCc4ccc(Cl)cc4)cc3C2=O)cc1
    31.7% | 3.1%
- N#Cc1ccc(/C=C/C(=O)c2cc3cc(Cl)ccc3o2)cc1
    5.3% | 4.7%
- CCc1ccccc1-n1c(SCC(=O)NC(C)c2cc3ccccc3o2)nnc1N1CCOCC1 (stereo not given)
    5.0% | -12.0%
- CCc1ccc(NC(=O)CSc2nc3n[nH]c(C)c3c(=N)n2-c2ccccc2C)cc1
    -3.1% | -4.0%
- COc1ccc(NC(=O)c2nc(S(=O)(=O)Cc3ccc(C)cc3)ncc2Cl)cc1
    13.9% | 0.0%
- O=C(Nc1ccc2oc(-c3ccccc3Br)nc2c1)c1ccco1
    7.6% | 187.1%[activator]
- CCn1nc(C(=O)OCC(=O)Nc2ccc(S(=O)(=O)N(C)C)cc2)c2ccccc2c1=O
    -1.0% | -6.4%
- Cc1ccc(NC(=O)COc2ccc(Cl)cc2)c(C(=O)O)c1
    58.6%[activator] | 146.6%[activator]
- Cc1ccc2c(COC(=O)[C@H](C)NC(=O)c3ccccc3)cc(=O)oc2c1
    0.5% | 0.0%
- O=C(CSc1nc2ccccc2o1)N1CCN(C(=O)C2CC2)CC1
    -14.0% | 28.0%
- Cn1nnnc1SCCCNCc1ccccc1OCc1ccc(F)cc1
    -2.2% | -0.4%
- CC(C)c1cccc(NC(=O)c2ccc3c(c2)NC(=O)CS3)c1
    ? | ?
- CCOc1ccc(S(=O)(=O)N2CCCC2c2ccc(Cl)cc2)cc1 (stereo not given)
    24.2% | 8.9%
- CCOc1ccccc1NC(=O)c1nn(-c2ccc(C)cc2)c(=O)n(C)c1=O
    -15.4% | -4.9%
- COc1ccc(OC)c(NC(=O)c2nc(-c3ccccc3)oc2C)c1
    -8.1% | -5.9%
- CCNc1nc(SC(C)C(=O)NC2CC2)nc2ccccc12 (stereo not given)
    23.8% | 44.8%[activator]
- CCC1CN(C(=O)Cn2cnc3sccc3c2=O)CCO1 (stereo not given)
    -15.6% | -2.1%
- CCNc1oc(/C=C/c2cccc(OC)c2)nc1C#N
    22.3% | 208.1%[activator]
- O=C(O)c1cc(/C=C/c2csc(-c3ccc(Cl)cc3)n2)nc2ccccc12
    11.0%[1.06 µM] | ?
- Cc1ccc(NC(=O)c2ccc3[nH]c(C)cc(=O)c3c2)cc1
    -12.2% | 8.5%
- O=C(COc1ccc2ccc(=O)oc2c1)N(Cc1cccs1)C1CC1
    50.9%[activator] | 46.0%[activator]
- CC(Sc1nncn1-c1ccccc1)C(=O)Nc1ccc(N(C)C)cc1 (stereo not given)
    -4.9% | 9.9%
- CC(=O)N1CCC(C(=O)NCc2ncc(-c3ccccc3)o2)CC1
    -4.7% | 116.1%[activator]
- CN(C)CCCNCCC#N
    -1.2% | 5.8%
- COc1ccc(Cl)cc1NC(=O)Cn1c(=O)n(Cc2ccc(F)cc2)c(=O)c2cccnc21
    8.7% | 0.2%
- N#Cc1c(-n2ncnc2-c2ccc(F)cc2)sc2c1CCCCC2
    -4.1% | 66.7%[activator]
- Clc1ccc(CN2CCc3nc(N4CCN(c5ccccn5)CC4)ncc3C2)cc1
    ? | -13.8%
- CCCCC1CCC(c2ccc(C(=O)O)cc2)CC1 (stereo not given)
    7.5% | 16.8%
- COc1cccc2cc(-c3nc(-c4cccs4)no3)c(=O)oc12
    -0.3% | 26.4%
- CCCCc1ccc(NC(=S)N(Cc2ccccc2)Cc2ccccc2)cc1
    50.2%[activator] | 6.7%
- Cc1ccc(C)c(N2CCN(c3cc(C)nc4c(-c5ccc(Cl)cc5)c(C)nn34)CC2)c1
    0.0% | 0.0%
- O=CN1CCN(C(C(=O)O)c2cn(Cc3ccccc3)c3ccc(C(=O)O)cc23)CC1 (stereo not given)
    -4.9% | -4.7%
- O=C(CSc1nc2ccccc2n1CC(=O)Nc1ccc(F)cc1F)Nc1ccc(F)cc1
    32.4%[activator] | 75.9%[activator]

Shown field by field: 2 of the compounds above.
COc1cccc2cc(-c3nc(-c4cccs4)no3)c(=O)oc12
  StopGo RLuc: -0.3%; StopGo FLuc: 26.4%

CCCCc1ccc(NC(=S)N(Cc2ccccc2)Cc2ccccc2)cc1
  StopGo RLuc: 50.2%[activator]; StopGo FLuc: 6.7%

The list goes on.
Values run as follows: StopGo RLuc | StopGo FLuc
- O=C(CCc1ncc(-c2ccc(F)cc2)o1)N1CCN(S(=O)(=O)c2ccc(F)cc2F)CC1
    ? | ?
- COc1ccccc1OCCNC(=O)c1cc(=O)c2ccccc2o1
    -5.5% | 42.9%[activator]
- COC(=O)CNC(c1ccccc1)c1cc(Br)ccc1NC(=O)c1cc(OC)c(OC)c(OC)c1 (stereo not given)
    63.0%[activator] | 3.0%
- CCOC(=O)C1CCC(CNC(=O)N2CCCC2c2ccccc2C)CC1 (stereo not given)
    14.1% | 2.3%
- CCN(CC)CCCNC(=O)C(=O)Nc1ccc2cc[nH]c2c1
    -15.3% | -9.2%
- CCOc1ccc(CN(CCOC)Cc2cc(=O)n3cc(C)ccc3n2)cc1
    -7.9% | 11.5%
- Cc1nc(-c2ccc(S(=O)(=O)Nc3ccc(C)c(Cl)c3)cc2)co1
    221.1%[activator] | 17.7%
- Cc1c(Cl)ccc2sc(NC(=O)c3ccc(S(=O)(=O)N4CCCc5ccccc54)cc3)nc12
    21.2% | 13.4%
- Clc1ccc(/C=N/N=C(c2ccccc2)c2ccccc2)cc1
    11.6% | 0.0%
- CCc1ccc(-n2nc(C)c3c(C(=O)Nc4cc(C)ccc4C)cc(C)nc32)cc1
    -11.0% | 1.6%
- O=C(c1ccc(OC(F)(F)F)cc1)N1CCC(NS(=O)(=O)c2cccs2)CC1
    21.5% | -10.1%
- Cc1ccc(C(=O)C(C)OC(=O)c2nn(C)c(=O)c3ccccc23)cc1C (stereo not given)
    -12.9% | -8.8%
- CCOc1ccc(-c2nc(Cn3c(=O)cc(-c4ccccc4)c4c(C)nn(C)c43)c(C)o2)cc1
    -4.9% | 36.2%[activator]
- CC(C)Oc1ccc(CNC(=O)c2ccc(Cn3c(=O)c4cccn4c4cccnc43)cc2)cc1
    -4.4% | -5.8%
- Clc1ccc(Sc2ccc(Sc3ccc(Cl)cc3)nn2)cc1
    21.6% | 34.7%[activator]
- CN1[C@@H]2CC[C@H]1CC(OC(=O)c1c[nH]c3ccccc13)C2 (stereo not given in full)
    -10.8% | -11.1%[11.5 µM]
- CC(=O)Nc1cccc(NC(=O)CSc2nccn2Cc2ccco2)c1
    -5.5% | -0.6%
- O=C(Nc1ccc(Cl)cc1)N1CCN(c2ccc3nnc(-c4ccc(F)cc4)n3n2)CC1
    43.1%[activator] | 28.7%
- COc1cc(/C=C/C(=O)c2c(O)c3ccccc3oc2=O)cc(OC)c1OC
    -6.7% | -1.3%
- CC(Sc1nc2c(c(=O)[nH]1)CCCC2)C(=O)Nc1cc(C(F)(F)F)ccc1Cl (stereo not given)
    1.9% | -4.3%
- CN(C)CCNC(=O)c1nc(-c2cccc3[nH]ccc23)no1
    21.9% | 48.0%[activator]
- NC(=O)C1CCC(NC(=O)C2(c3cccc(Cl)c3)CCC2)CC1 (stereo not given)
    8.2% | 0.2%
- COc1ccccc1CNCCc1c[nH]c2ccccc12
    3.0% | -12.1%
- CCOc1ccccc1NC(=O)c1c(NC(=O)Cc2ccccc2)sc2c1CCCC2
    51.9%[activator] | -16.5%
- N#Cc1c(N)n[nH]c1CCCNc1nc(-c2ccccc2)nc2ccccc12
    176.2%[activator] | 125.5%[activator]
- Cc1ccc(NS(=O)(=O)c2ccc3c(c2)NC(=O)C(C)C(=O)N3)cc1F (stereo not given)
    4.4% | -28.8%
- COc1cccc(CNC(=O)C2CCN(S(=O)(=O)c3ccc4c(c3)CCCN4C(C)=O)CC2)c1
    11.9% | 2.7%
- COc1ccc(CCNC(=O)C(C)n2c(=O)cc(-c3ccccc3)c3c(C)nn(C)c32)cc1OC (stereo not given)
    -9.8% | -5.2%
- COc1ccc2oc(=O)c(C(=O)NCCc3ccc(OC)c(OC)c3)cc2c1
    -0.5% | -3.8%
- O=C(Nc1ccc(N2CCOCC2)c(C(=O)O)c1)c1ccc(Br)cc1
    -10.7% | -5.6%
- CCC(=O)Nc1cc(-c2nc3ccccc3s2)c(Cl)cc1Cl
    -8.8% | 3.8%
- COc1ccccc1NC(=O)Cn1ccn(-c2cc(C)cc(C)c2)c(=O)c1=O
    -8.4% | -17.2%
- CCOc1cc(CNC(=O)c2ccc3c(c2)NC(=O)C2CCCCN32)cc(OCC)c1OCC (stereo not given)
    -16.3% | -22.5%
- O=C(O)c1cccc2c(Cl)cccc12
    1.2% | 0.0%
- CCN(CC)S(=O)(=O)c1ccc2c(c1)N(CC(=O)NCc1ccc(F)cc1)C(=O)CO2
    66.0%[activator] | 15.6%
- CC1=C(C(=O)Nc2ccccc2)C(c2ccc(F)cc2)N=C(Nc2nc3ccccc3o2)N1 (stereo not given)
    -14.0% | -11.5%
- CN(Cc1ccc(Cl)cc1)C(=O)c1ccc(Cl)c(S(=O)(=O)NC2CC2)c1
    102.9%[activator] | -0.6%
- CCOCCCN(Cc1ccco1)S(=O)(=O)c1cc2c(cc1Cl)NC(=O)CO2
    15.3% | -18.4%
- COc1ccc(OC)c(CNCc2c(C(=O)O)n(Cc3ccccc3)c3cc(OC)ccc23)c1
    216.5%[activator] | -8.7%
- CC(CC(=O)Nc1ccc(F)cc1F)n1ccnc1 (stereo not given)
    -0.8% | -4.5%
- CCCCCOc1ccc2c(C)c(CCCCC)c(=O)oc2c1
    -0.3% | 5.5%
- CN1CCc2c(c(N3CCOCC3)nc3sc(C(N)=O)c(N)c23)C1
    -4.6% | 7.6%
- Cc1ccc(NC(=O)c2ncoc2-c2cccc(C)c2)cc1
    -8.4% | 96.5%[activator]
- CC1=C(C(=O)OC(C)(C)C)C(c2ccccc2Cl)NC(=S)N1 (stereo not given)
    ? | -24.5%
- CCc1ccc(C23OC(=O)C(C)(C)C2OC(=O)C3(C)C)cc1 (stereo not given)
    4.3% | -6.6%
- CCOC(=O)c1[nH]c(C)c(CCC(=O)N2CCN(c3cccc(C)c3C)CC2)c1C
    15.4% | -0.7%
- CCOC(=O)C(C)Oc1ccc2c(=O)c(-c3csc(C)n3)coc2c1 (stereo not given)
    14.9% | 192.4%[activator]
- C#Cc1cccc(NC(=O)C(C)OCC)c1 (stereo not given)
    21.4% | 0.0%
- CCOC(=O)c1c(C)oc2nc(C)nc(Nc3cc(C)ccc3OC)c12
    -7.4% | -4.3%
- COC(=O)CNC(=O)Cn1ccc2cc(OCc3ccccc3)ccc21
    12.1% | 184.0%[activator]
